# Vaccinia mCherry = vaccinia inhibition (mCherry reporter); Vaccinia virus mCherry reporter infection, fluorescence; about a quarter of the inactives have no number; Potency, µM (highest dose often 36.5 µM), inactives show at the highest dose activity change, negative = inhibition, usual class: inhibitors; 0.63% of 310,000 active; AID 720579; active = well fitted inhibition curve with a large enough effect; inconclusive = small, poorly fitted or top-dose-only effect; inactive = no such curve, though single readings can be large or run the other way; tested in A549 cells; also: nearly all actives have a fitted effect of over 35% in size; inactives centre near -10
# VACV Venus inh = vaccinia inhibition (Venus reporter); Vaccinia virus Venus reporter expression, fluorescence; Potency, µM (series often up to 36.5 µM), without a hit: at the top dose activity change, negative = inhibition, usual class: inhibitors; 0.46% of 330,000 active; active means well fitted inhibition curve with a large enough effect; inconclusive means small, poorly fitted or top-dose-only effect; inactive means no such curve, though single readings can be large or run the other way; tested in A549 cells; also: nearly all actives have a fitted effect of over 30% in size; inactives centre near -10
# Active calls of the source: *; i = inactive; ? = inconclusive; . = not tested or not shown; & = joins results of further samples; [ ] = another dose, or the depositor's remark. % is scaled to controls: 0 for no effect and ±100 for the full control effect; potency is read from the fitted curve at half-maximal effect.
# Each structure is followed by: Vaccinia mCherry | VACV Venus inh
CN(CC(=O)Nc1ccc(F)c(F)c1F)C(=O)Cn1cnc2c1c(=O)n(C)c(=O)n2C
→ -7.7% | -9.4%
C[C@@]12CCC3C(CC[C@@H]4CC(O)CC[C@@]34C)C1CCC2O (some centres not stated)
→ 17.8% | 0.0%
Cc1cccc(NC(=O)C(C)OC(=O)CNC(=O)C2CCCCC2)c1 (configuration not stated)
→ i | -19.7%
CC1CCN(C(=O)CSc2nc3ccccc3c(=O)[nH]2)CC1
→ 2.2% | -5.3%
O=C(Nc1nnc(-c2ccccc2)o1)c1nc2ccccc2s1
→ -29.9% | -24.5%
COC(=O)C1=C(c2ccc(Cl)c(C(F)(F)F)c2)C[C@@H]2CC[C@H]1N2C(=O)NCc1ccc2c(c1)OCO2
→ i | ?
COc1cc(CCC(=O)OCC(=O)Nc2ccc3c(c2)OCO3)cc(OC)c1OC
→ -10.5% | -4.9%
CCOC(=O)c1c(C)nc2c3ccccc3ccn12
→ -24.1% | -10.4%
O=S(=O)(c1ccccc1)c1nc(-c2ccccc2)oc1N1CCCC1
→ -1.6% | -7.2%
COc1ccc(C(=O)/C=C/c2ccccc2)cc1
→ -18.1% | -7.8%
O=C(/C=C/c1cccc(Cl)c1)NCc1ccncc1
→ -6.2% | -1.3%
C=CCN1C2CCCC1CC(NC(=O)Nc1cccc(C(C)=O)c1)C2 (configuration not stated)
→ -19.4% | -14.9%
CC(=O)c1ccc(-c2cc(F)cc3c2OC(CNC(=O)C(C)N2CCOCC2)C3)s1 (configuration not stated)
→ -4.2% | -10.7%
O=C(O)C12CC3CC(C1)CC(n1ncc(N4CCN(c5ccccc5)CC4)c(Cl)c1=O)(C3)C2
→ -7.4% | -8.7%
O=C(COC(=O)C1CCN(S(=O)(=O)c2cccs2)CC1)Nc1ccccc1
→ i | 0.7%
FC(F)(F)c1cccc(N2CCN(Cc3nnc(-c4ccc5c(c4)OCO5)o3)CC2)c1
→ -4.8% | -5.9%
CC(=O)N1CCN(CC(=O)NC(=O)Nc2ccc3c(c2)OCCO3)CC1
→ -11.9% | -5.5%
Cc1cccc(NC(=O)N2CCN(C(=O)c3nsc4ccccc34)CC2)c1C
→ -17.1% | -14.3%
CC1CCCCC12NC(=O)N(CC(=O)NC1CCCc3ccccc31)C2=O (configuration not stated)
→ -7.3% | -8.0%
COc1cccc(NC(=O)CSc2nc3c(oc4ccccc43)c(=O)n2Cc2ccco2)c1
→ -15.1% | -7.0%
C=CCC1c2cccc(C(=O)O)c2C(=O)N1c1cccc(OC)c1 (configuration not stated)
→ i | -5.4%
Cc1cc(C)nc(SCCC(=O)Nc2cccc3ccccc23)n1
→ -19.8% | -1.6%
CCN(CC)CC(=O)Nc1cc(N(C)C)nc2ccccc12
→ 11.0% | -1.8%
Cc1cc(C)c(NC(=O)NC2CCCCC2)c(C)c1
→ -20.5% | -1.8%
COc1ccc(N2CCN(C(C)C(=O)N3CCc4ccccc43)CC2)cc1 (configuration not stated)
→ ? | -25.0%
CC[C@]12c3[nH]c4cc(-c5ccco5)ccc4c3CCN1C(=O)[C@@H](CC(=O)NCCN1CCOCC1)C[C@@H]2C(=O)N1CCN(C(=O)C2CC2)CC1
→ i | 3.4%
O=C(NCCN1CCN(C(=O)c2cccs2)CC1)C(=O)Nc1ccc(Br)cc1
→ -15.8% | -26.8%
O=[N+]([O-])c1ccc2c(c1)C(=NO)c1cc(F)ccc1-2
→ i | -7.3%
COc1ccc(CNC(=O)C(NS(=O)(=O)c2cccc3nsnc23)C(C)C)cc1 (configuration not stated)
→ -8.7% | -4.1%
COc1cccc([C@@H]2CC=C(C(=O)O)[C@H](c3ccc(C)cc3)N2S(=O)(=O)c2ccc(C)cc2)c1
→ -9.8% | -8.8%
Cc1nc2ccccn2c1C(=O)N=Nc1c(O)[nH]c2ccccc12
→ -13.5% | -6.8%
COc1ccc(CNC(=O)c2ccc(S(=O)(=O)N3CC(C)CC(C)C3)cc2)cc1OC (configuration not stated)
→ -7.7% | -19.4%
Cc1ccc(S(=O)(=O)N2[C@@H](c3ccccc3)C(C(=O)O)=CC[C@H]2c2ccc(Cl)c(Cl)c2)cc1
→ -21.2% | -19.2%
COc1ccc(-c2oc3c(c2C(=O)OCCCO)C(OCCO)CCC3)cc1 (configuration not stated)
→ -7.1% | -9.8%
COc1ccc2cc(S(=O)(=O)NCCCN3CCOCC3)ccc2c1
→ -16.5% | -18.9%
CCCCc1sc(-c2c(C#N)c(N)nc3c2CCCCC3)cc1[N+](=O)[O-]
→ -13.8% | -23.7%
CCCCc1nc(C(N)=O)c2[nH]c(=O)n(-c3ccc(OC)c(OC)c3)c2n1
→ -2.2%[7.34 µM] | 14.4%[7.34 µM]
Cc1cc(C(=O)NNc2cc(Cl)ccc2Cl)no1
→ i | -6.2%
CC(C)(C)C(=O)N1CCC2CC1c1cc(Cl)ccc12 (configuration not stated)
→ i | 5.2%
Cc1ccc(-n2nc(-c3ccc(F)cc3)c3cnc4cc5c(cc4c32)OCO5)cc1C
→ 7.3% | -8.4%
COc1cc(C)ccc1OCc1cc(C(=O)NC2CCOCC2)no1
→ -12.9% | -15.1%
COc1ccc(OCCCC(=O)NCCc2nc3ccccc3[nH]2)cc1
→ 15.6% | 14.3%
Cc1ccc(C(=O)NCC(=O)OCCCn2c(=O)[nH]c3ccccc32)cc1C
→ -26.3% | -3.2%
COc1cc(C(=O)NCCNc2nc3c(C)cccc3cc2C#N)cc(OC)c1OC
→ i | -1.5%
COC(=O)c1cc(CNC(=O)c2ccccc2F)cc(NC(=O)c2ccccc2OC)c1
→ -6.6% | 8.8%
CSCCC(NC(=O)c1ccccc1Cl)C(=O)NNC(=O)c1csc(N2CCOCC2)n1 (configuration not stated)
→ i | -8.4%
COc1ccc(NC(=O)C2CCCCN2N)cc1OCC(C)C (configuration not stated)
→ -12.2% | -14.6%
CC1=CC(C)(C)N(C(=O)CCl)c2ccccc21
→ -4.5% | -11.9%
Cc1ccccc1NCc1ccc([N+](=O)[O-])s1
→ i | -10.5%
CC(=O)Nc1nnc(SCC(=O)Nc2ccc(N3CCOCC3)c(Cl)c2)s1
→ -6.2% | -9.6%
COC(=O)COc1cccc(NS(=O)(=O)c2cccc([N+](=O)[O-])c2)c1
→ i | -5.4%
CCCc1c(O)nc(SCC(=O)NCCc2ccc(OC)c(OC)c2)[nH]c1=O
→ . | ?
O=C(O)CCC(=O)N1CCN(c2nc(-c3ccccc3Cl)c3cc(Br)ccc3n2)CC1
→ . | -11.1%
Cn1c(=O)oc2cc(S(=O)(=O)Nc3ccc(C(=O)O)cc3)ccc21
→ -9.1% | 5.6%&0.0%
COc1ccc(C)cc1-n1nnnc1SCC(=O)NC1CC1
→ -16.6% | -14.9%
CN1C[C@@H]2[C@@H]3C(=O)N(Cc4ccccc4)C(=O)[C@@H]3[C@](Cc3ccccc3)(C1=O)N2C(=O)c1ccc(C(C)(C)C)cc1
→ ? | ?
CCc1ccc(C2C(C(=O)O)c3ccccc3C(=O)N2C)cc1 (configuration not stated)
→ ? | -11.1%
NNc1nc2c(-c3ccc(F)cc3)nnn2c2ccccc12
→ ? | 24.6%
CCOC(=O)C1CCCN(C(c2ccccn2)c2c(C)[nH]c3ccccc23)C1 (configuration not stated)
→ i | 0.7%
CC(=O)c1ccc(NC(=S)NNC(=O)c2ccncc2)cc1
→ i | -13.8%

# The results go on:
# Each structure is followed by: Vaccinia mCherry | VACV Venus inh
COCCCNS(=O)(=O)c1ccc(C)cc1
→ i | -8.8%
O=[N+]([O-])c1ccc(N2CCN(Cc3ccccc3)CC2)c(S(=O)(=O)N2CCOCC2)c1
→ . | 6.7%
COc1ccc2c(c1)[C@H]1[C@H](CO2)[C@H](c2ccccc2)[C@@]2(C)C(=O)N[C@H](C)C(=O)N12
→ -9.0% | -1.2%
Cc1c(C(=O)NCCc2ccc(Cl)cc2)sc2nc3n(c(=O)c12)CCCC3
→ -20.3% | -6.1%
Cc1ccc(-n2ncc3c2CC(C)(C)CC3NC(=O)C2CCOCC2)cc1 (configuration not stated)
→ -12.8% | -11.9%
Cc1cc(C)c2nc(C)cc(Nc3cccc(C(=O)O)c3)c2c1
→ i | -5.9%
Oc1ccc(Cl)cc1/C=N/c1nc2ccccc2[nH]1
→ -8.7% | -3.7%
O=C1CC(N2CCN(c3ccccc3)CC2)C(=O)N1c1ccc2c(c1)OCO2 (configuration not stated)
→ 10.5% | -5.8%
CNc1ncnc2c1ncn2[C@H]1CN(Cc2ccccc2)C[C@@H](CO)O1
→ -6.5% | 8.3%
Clc1ccc(CSc2nnnn2-c2ccc3c(c2)OCO3)c(Cl)c1
→ . | -27.3%
CCC1C(=O)CC(c2ccc([N+](=O)[O-])cc2)NC1c1ccc([N+](=O)[O-])cc1 (configuration not stated)
→ -23.3% | -3.5%
Nc1[nH]c(C(=O)c2ccccc2)c(-c2ccccc2Cl)c1C(=O)c1ccccc1
→ ? | -17.4%
O=C1NC2(CCCCC2)C(=O)N1CCS(=O)(=O)Oc1ccccc1
→ . | -17.4%
CC(C)c1ccc(Nc2ncc3c(n2)CCN(C(=O)NC2CCCCC2)C3)cc1
→ -0.5% | -14.1%
Cc1ccc(N(C(=O)c2csnn2)C(C(=O)NC2CCCCC2)c2ccco2)cc1 (configuration not stated)
→ -17.9% | -17.5%
COc1ccccc1OCC(=O)N1CCN(C(=O)COc2ccccc2OC)CC1
→ -1.4% | 3.3%
CN1CCN(C(=O)Nc2cccc(Cl)c2)c2cccnc21
→ -0.1% | 1.3%
Cc1ccc(-n2c(=O)c3c(C)c(C)sc3n(CC(=O)NCc3ccccc3)c2=O)cc1C
→ -12.6% | -9.0%
Cc1cccc(C(=O)Oc2ccc(/C=N/NC(=O)Cc3ccc([N+](=O)[O-])cc3)cc2)c1
→ -6.1% | -16.1%
O=C1CC(N2CCC(O)CC2)C(=O)N1c1ccc(Br)cc1 (configuration not stated)
→ . | -3.5%
Cn1c(SCc2ccccc2)nnc1-c1c[nH]c2ccccc12
→ -9.9% | -7.3%
O=C(COC(=O)Cc1ccc(Br)cc1)Nc1c(F)c(F)c(F)c(F)c1F
→ -5.1% | -6.7%
COc1cccc2cc(-c3nc4ccc(C)cc4[nH]3)c(=O)oc12
→ -9.0% | -1.2%
Cc1ccc(C)c(-n2nnc(-c3nc(-c4ccc(Cl)cc4)no3)c2N)c1
→ -12.4%[7.34 µM] | -9.2%[7.34 µM]
Cc1ccc(C)c(NC(=S)N(C)C)c1
→ ? | -6.8%
Cc1cc(C)cc(NC(=O)c2cc3c(=O)n(Cc4ccco4)ccc3nc2C)c1
→ -3.6% | -7.8%
COc1cccc(OCc2cc(C(=O)N(C)C3CCCCC3)no2)c1
→ -16.7% | -22.1%
C=CC[C@@H](Cc1ccc(F)cc1)C(=O)OC[C@@H]1CCCN1C(=O)[C@@H](CC=C)CC(=O)N[C@@H](CO)Cc1ccccc1
→ -17.9% | ?
S=C(NCCC(c1ccccc1)c1ccccc1)Nc1ccc(Cl)cc1
→ ? | -25.7%
COc1cccc(Cn2c3ccc(NC(=O)CCc4ccc(F)cc4)cc3c(=O)n2C)c1
→ -12.1% | ?
Cn1c(=N)c(S(=O)(=O)c2ccc(F)cc2)cc2c(=O)n3ccccc3nc21
→ -3.0% | -5.8%
COc1ccc(-c2noc(CCCC(=O)NC3CCCC3)n2)cc1
→ -9.7% | 5.6%
Cc1noc(C)c1CSCC(=O)N(C)CC(=O)Nc1cccc(F)c1
→ -7.8% | -11.0%
CC(=O)N1CCN(Cc2nc3cc(NC(=O)c4cccs4)ccc3n2C)CC1
→ -8.7% | -0.4%
CCc1ccc(-c2nc(CSCC(=O)NC3CC3)c(C)o2)cc1
→ i | -18.9%
COc1ccc(OCC(=O)OCc2cc(=O)n3cc(C)sc3n2)cc1
→ i | -8.4%
CO[C@@]1(NC(=O)Cc2cccs2)C(=O)N2C(C(=O)O)=C(COC(N)=O)CSC21 (some centres not stated)
→ -4.0% | -6.3%
CCC(C)N1C(=O)/C(=C/c2ccc3c(c2)CCN3CCCCl)C(=O)NC1=S (configuration not stated)
→ -4.1% | 15.4%
CCCCOC(=O)CSc1nc2c(c(=O)[nH]c(=O)n2C)n1C/C=C(\C)Cl
→ i | -12.4%
Cc1ccc(C(=O)NCCN2CCC(n3c(=O)[nH]c4ccccc43)CC2)cc1
→ -9.6% | 4.9%

# Reformatted: entries from further up
smiles: Cc1noc(C)c1CSCC(=O)N(C)CC(=O)Nc1cccc(F)c1
  Vaccinia mCherry: -7.8%
  VACV Venus inh: -11.0%
smiles: COc1ccc(-c2noc(CCCC(=O)NC3CCCC3)n2)cc1
  Vaccinia mCherry: -9.7%
  VACV Venus inh: 5.6%
smiles: Cc1ccc(C)c(NC(=S)N(C)C)c1
  Vaccinia mCherry: ?
  VACV Venus inh: -6.8%

# Grouped by structure: those above containing a CF3 group (2)
# Each structure is followed by: Vaccinia mCherry | VACV Venus inh
COC(=O)C1=C(c2ccc(Cl)c(C(F)(F)F)c2)C[C@@H]2CC[C@H]1N2C(=O)NCc1ccc2c(c1)OCO2
→ i | ?
FC(F)(F)c1cccc(N2CCN(Cc3nnc(-c4ccc5c(c4)OCO5)o3)CC2)c1
→ -4.8% | -5.9%

# Other records follow.
# Each structure is followed by: Vaccinia mCherry | VACV Venus inh
O=C(/C=C/c1ccccc1)Nc1nc2n(n1)C(c1ccc(Cl)cc1)C=C(c1ccccc1)N2 (configuration not stated)
→ -4.7% | -9.0%
c1ccc(C[C@H]2CN=C(Nc3ccccc3)N2CC2CCCCC2)cc1
→ -19.1% | -23.6%
CCC(Oc1ccc(C)cc1)C(=O)Nc1ccc(S(=O)(=O)Nc2nccs2)cc1 (configuration not stated)
→ -8.2% | -9.8%
CCCC(=O)C1=C(N2CCCC2)CC(C)(C)C(C(=O)OC)C1=O (configuration not stated)
→ i | -5.3%
Cc1nn(Cc2c(Cl)cccc2Cl)c(Cl)c1/C=N/NC(=O)c1cccnc1
→ i | -3.2%
